PD-1 reversal: activators reversing PD-1 mediated T-cell inhibition. 29,000 tested, under 10 active. primary human CD4 T cells, PD-L1 beads, CellTiter-Glo 96 h. activation, % (concentration not given with the values);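 active = replicate mean of 50% or more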;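 also: 0% = median vehicle wells and 100% = positive control; 100 nL library stock added to about 50 µL; numbers are from one replicate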
MITF inhib: inhibitors of MITF. inhibition, % (concentration not given with the values). 37,000 compounds, 0.28% hits. AID 2240. TRPM1 promoter luciferase, luminescence, 24 h;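 active = most replicates at 85% or more, or half of them and the mean; inconclusive = half reach 85% but not the mean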;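 also: human melanocyte line stably carrying TRPM1 promoter luciferase reporter; 0% = vehicle wells and 100% = a positive control; the first replicate is given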
YB-1 expression: YB-1 expression inhibition. 30,000 compounds, 0.37% hits. delta delta Cp (YB-1 minus CDIP) (no concentration beside the values). AID 434959. U2OS, qRT-PCR YB-1 vs CDIP delta delta Cp, 16 h; stronger effect = higher value; zero = DMSO, each unit about twofold;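 active = delta delta Cp rounded down to an integer at or above 3, about 3 SD of DMSO wells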;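 also: higher means less YB-1 transcript or more CDIP transcript relative to DMSO; stock transfer was 100 nL into about 100 µL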
Shh pathway inh: blocks Sonic Hedgehog signaling | Shh-LIGHT2 Gli-luciferase reporter, 30 h | inhibition, % (concentration not given with the values) | 22,000 compounds, 2.1% hits;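 active = replicate mean of 65% or more; inconclusive = mean lower but half the replicates past it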;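 also: pathway switched on by Shh-conditioned medium diluted 1 in 25 in low serum; 100 nL library stock added to about 40 µL; 0% = median of neutral wells and 100% = positive control level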
* marks the source's active call; other numbers are inactive results; ? = inconclusive; nt = not tested or not shown. Some of the compounds tested (hit frequency here may not be typical).

SMILES	PD-1 reversal	MITF inhib	YB-1 expression	Shh pathway inh
C[C@@H]1CCCCO[C@H](CN(C)C(=O)Nc2ccc(C(F)(F)F)cc2)[C@@H](C)CN([C@H](C)CO)C(=O)c2cc(NC(=O)c3ccncc3)ccc2O1	nt	-2.0	-0.198	46.0
C[C@@H]1CCCCO[C@H](CN(C)C(=O)NC2CCCCC2)[C@@H](C)CN([C@H](C)CO)C(=O)c2cc(NC(=O)Nc3ccc4c(c3)OCO4)ccc2O1	nt	-10.9	-0.0119	11.8
C[C@H]1CN([C@@H](C)CO)C(=O)Cc2cc(NC(=O)NC3CCCCC3)ccc2O[C@@H]1CN(C)C(=O)Nc1ccc(C(F)(F)F)cc1	1.0	-17.4	-0.533	-60.0
C[C@H](CO)N1C[C@H](C)[C@H](CN(C)C(=O)Nc2ccc(F)cc2)Oc2ccc(NC(=O)Nc3ccc(C(F)(F)F)cc3)cc2C1=O	-2.7	48.6	-0.122	69.3*
C[C@@H]1CCCCO[C@@H](CN(C)S(=O)(=O)c2cn(C)cn2)[C@@H](C)CN([C@H](C)CO)C(=O)c2cc(NC(=O)NC3CCCCC3)ccc2O1	1.9	-0.2	0.0184	-10.8
CC(C)(C)c1ccc(N2C(=O)CCC2=O)cc1	0.1	-17.0	-0.0569	-64.4
CC(C)NC(=O)Nc1ccc2c(c1)CC(=O)N([C@@H](C)CO)C[C@@H](C)[C@@H](CN(C)Cc1ccccc1)O2	nt	4.5	0.0375	15.7
Cc1noc(C)c1S(=O)(=O)Nc1ccc2c(c1)C(=O)N([C@H](C)CO)C[C@H](C)[C@H](CN(C)Cc1ccc3c(c1)OCO3)O2	-1.3	-11.0	-0.249	30.2
C[C@@H]1CCCCO[C@H](CN(C)Cc2ccc3c(c2)OCO3)[C@@H](C)CN([C@H](C)CO)C(=O)c2cc(NC(=O)CCCN(C)C)ccc2O1	nt	1.3	-0.0342	-3.2
COc1ccc(S(=O)(=O)N(C)C[C@@H]2Oc3ccc(NC(=O)Nc4ccccc4)cc3CC(=O)N([C@H](C)CO)C[C@H]2C)cc1	0.9	-5.4	0.455	-7.8
C[C@@H]1CN([C@@H](C)CO)C(=O)Cc2cc(NC(=O)Cc3ccccc3)ccc2O[C@@H]1CN(C)Cc1ccc(C(=O)Nc2ccccc2N)cc1	-1.9	11.8	-0.00324	nt
COc1ccc(/C=C2/C(=O)C(C)(C(C)C)CCC2C)cc1 (centres undefined)	0.8	-25.8	-0.129	-19.9
C[C@@H]1CN([C@H](C)CO)C(=O)c2cc(NC(=O)c3ccncc3)ccc2O[C@H]1CN(C)Cc1ccc(C(=O)Nc2ccccc2N)cc1	-0.2	-9.5	0.0901	nt
Cc1cc(C)cc(OCC(=O)Nc2cccc(-c3nc4ccccc4o3)c2)c1	-2.3	-41.3	nt	nt
C[C@@H]1CN([C@@H](C)CO)C(=O)c2cc(NS(=O)(=O)c3ccccc3)ccc2O[C@H]1CN(C)Cc1ccccc1	0.3	4.9	-0.143	nt
O=[N+]([O-])c1ccc(S(=O)(=O)CC2CSc3nc4ccccc4n32)cc1 (centres undefined)	0.2	40.8	nt	nt
Cc1noc(C)c1NC(=O)N(C)C[C@H]1OCCCC[C@@H](C)Oc2ccc(NC(=O)Nc3ccc4c(c3)OCO4)cc2C(=O)N([C@H](C)CO)C[C@@H]1C	nt	-8.2	-0.265	23.9
O=C(Nc1ncc(C(F)(F)F)cc1Cl)C1COc2ccccc2O1 (centres undefined)	1.7	-17.0	nt	nt
C[C@@H]1CN([C@@H](C)CO)C(=O)Cc2cc(NC(=O)Nc3cccc4ccccc34)ccc2O[C@@H]1CN(C)S(=O)(=O)c1ccc(F)cc1	nt	2.3	-0.16	5.6
C[C@H](CO)N1C[C@H](C)[C@@H](CN(C)C(=O)Nc2ccc3c(c2)OCO3)Oc2c(NC(=O)C3CC3)cccc2C1=O	nt	-1.0	-0.122	-21.5
CC(C)NC(=O)Nc1ccc2c(c1)C(=O)N([C@@H](C)CO)C[C@H](C)[C@@H](CN(C)C(=O)Nc1ccc(F)cc1)O2	nt	-8.0	-0.0385	-39.4
Fc1ccc(Nc2nc3ccccc3nc2Nc2ccc(F)cc2)cc1	-6.8	34.6	0.148	nt
C=C1C(=O)O[C@H]2[C@H]1[C@@H](OC(=O)C(C)(O)CCl)C(OC(C)=O)/C(C(=O)OC)=C\CC[C@@]1(C)O[C@H]21 (some centres undefined)	-11.7	52.6	-0.172	-16.2
C[C@@H]1CN([C@@H](C)CO)C(=O)Cc2cc(NC(=O)C3CC3)ccc2O[C@@H]1CN(C)S(=O)(=O)c1ccc(F)cc1	2.0	11.2	0.031	-0.1
CC(C)NC(=O)N(C)C[C@H]1Oc2ccc(NC(=O)CCN3CCOCC3)cc2CC(=O)N([C@@H](C)CO)C[C@@H]1C	-0.8	-1.1	-0.586	nt
Cc1cc2nn(-c3cccc4ccccc34)nc2cc1NC(=S)NC(=O)COc1ccccc1	-5.6	3.2	nt	nt
C[C@H](CO)N1C[C@H](C)[C@@H](CN(C)S(=O)(=O)c2ccccc2)Oc2c(NS(C)(=O)=O)cccc2C1=O	2.5	0.6	-1.1	-27.5
Cc1noc(C)c1S(=O)(=O)N(C)C[C@H]1Oc2ccc(NS(=O)(=O)c3cn(C)cn3)cc2CC(=O)N([C@@H](C)CO)C[C@H]1C	-0.4	-18.8	-0.468	nt
C[C@@H]1CN([C@@H](C)CO)C(=O)Cc2cc(NC(=O)Nc3ccc4c(c3)OCO4)ccc2O[C@@H]1CN(C)Cc1ccc(C(=O)O)cc1	3.4	-7.1	0.331	-34.6
COc1ccc(NC(=O)Nc2ccc3c(c2)CC(=O)N([C@@H](C)CO)C[C@@H](C)[C@@H](CN(C)C(=O)Nc2c(C)noc2C)O3)cc1	nt	2.2	-0.261	16.3
CC(C)OC(=O)C1=c2s/c(=C\c3cccnc3)c(=O)n2C(N)=C(C#N)C1c1cccnc1 (centres undefined)	-1.8	-7.3	-0.155	-21.0
Cc1noc(C)c1NC(=O)Nc1ccc2c(c1)CC(=O)N([C@@H](C)CO)C[C@@H](C)[C@@H](CN(C)C)O2	nt	-8.0	-0.0458	0.0
Cc1ccc(S(=O)(=O)N(C)C[C@@H]2Oc3ccc(NC(=O)Cc4cn(C)c5ccccc45)cc3C(=O)N([C@@H](C)CO)C[C@H]2C)cc1	-1.5	28.2	-0.187	13.8
COc1cc(OC)c(C2=NOC(C(=O)Nc3sc4c(c3C#N)CCC4)C2)cc1Cl (centres undefined)	1.2	-3.8	nt	nt
O=C(NCc1ccco1)c1cnn2c(C(F)F)cc(-c3ccccc3)nc12	-2.5	7.0	nt	nt
CC(=O)OCC(=O)[C@@]1(O)[C@H](C)CC2C3CCC4=CC(=O)C=C[C@]4(C)[C@@]3(F)[C@@H](O)C[C@@]21C (some centres undefined)	nt	-14.3	-0.619	54.8
C[C@H]1CN([C@@H](C)CO)C(=O)c2cc(NC(=O)Nc3ccc(C(F)(F)F)cc3)ccc2O[C@H]1CN(C)C	-0.5	-8.0	0.14	15.7
CC(C)NC(=O)Nc1ccc2c(c1)C(=O)N([C@@H](C)CO)C[C@@H](C)[C@@H](CN(C)C(=O)Nc1ccc(F)cc1)O2	-0.9	-11.0	-0.222	-1.2
COc1ccc(NC(=O)N(C)C[C@@H]2Oc3ccc(NC(=O)Nc4c(C)noc4C)cc3C(=O)N([C@H](C)CO)C[C@H]2C)cc1	-0.6	1.7	0.183	nt
Cc1noc(C)c1S(=O)(=O)Nc1ccc2c(c1)C(=O)N([C@H](C)CO)C[C@H](C)[C@@H](CN(C)C(=O)Nc1cccc3ccccc13)O2	-1.0	-1.6	0.197	4.7

Taken from above.
YB-1 expression with Fc1ccc(Nc2nc3ccccc3nc2Nc2ccc(F)cc2)cc1 = 0.148
YB-1 expression with COc1ccc(/C=C2/C(=O)C(C)(C(C)C)CCC2C)cc1 (centres undefined) = -0.129

Profiles, looked up by structure. Order of screens: PD-1 reversal, MITF inhib, YB-1 expression, Shh pathway inh
CC(=O)OCC(=O)[C@@]1(O)[C@H](C)CC2C3CCC4=CC(=O)C=C[C@]4(C)[C@@]3(F)[C@@H](O)C[C@@]21C (some centres undefined) across the screens: nt, -14.3, -0.619, 54.8
COc1cc(OC)c(C2=NOC(C(=O)Nc3sc4c(c3C#N)CCC4)C2)cc1Cl (centres undefined) across the screens: 1.2, -3.8, nt, nt

Following part:
SMILES	PD-1 reversal	MITF inhib	YB-1 expression	Shh pathway inh
COc1ccc(NC(=O)Nc2ccc3c(c2)C(=O)N([C@H](C)CO)C[C@H](C)[C@H](CN(C)Cc2ccc(C(F)(F)F)cc2)OCCCC[C@@H](C)O3)cc1	-2.8	19.8	0.124	47.0
CC(=O)Nc1ccc(NC(=O)CC2Sc3ccc(C(F)(F)F)cc3NC2=O)cc1 (centres undefined)	0.5	4.4	nt	nt
COc1ccc(S(=O)(=O)Nc2ccc3c(c2)CC(=O)N([C@H](C)CO)C[C@@H](C)[C@H](CN(C)Cc2ccc(C(=O)O)cc2)O3)cc1	0.7	-2.4	-0.326	-7.0
N#C/C(=C\c1ccc(Cl)c(Cl)c1)c1ccc(NC(N)=O)cc1	-0.1	-27.7	-0.0935	14.9
C[C@H]1CN([C@@H](C)CO)C(=O)Cc2cc(NC(=O)CCC(F)(F)F)ccc2O[C@H]1CN(C)C(=O)Nc1ccccc1	0.5	-12.5	-0.0994	-20.2
C[C@H]1CN([C@@H](C)CO)C(=O)c2cccc(NC(=O)c3nc4ccccc4s3)c2O[C@H]1CN(C)S(=O)(=O)c1cccs1	-2.6	-39.9	0.19	9.5
C[C@H]1CN([C@@H](C)CO)C(=O)c2cccc(NC(=O)C3CCOCC3)c2O[C@H]1CN(C)Cc1ccc(C(F)(F)F)cc1	1.4	-12.6	-0.176	7.9
C[C@H]1CN([C@@H](C)CO)C(=O)Cc2cc(NC(=O)c3ccncc3)ccc2O[C@@H]1CN(C)S(=O)(=O)c1ccc(F)cc1	0.2	-12.7	-0.475	-7.2
Cc1ccc(Nc2nc(N)nc(CSc3nccn3C)n2)cc1	-1.7	13.3	nt	nt
C[C@@H]1CN([C@@H](C)CO)C(=O)Cc2cc(NS(=O)(=O)c3cccs3)ccc2O[C@@H]1CN(C)C(=O)Nc1ccccc1	1.7	5.4	0.093	37.5
O=C(C1CC(=O)N(c2ccccc2)C1)N(Cc1ccccc1)Cc1ccccc1 (centres undefined)	-1.4	7.5	-0.261	nt
Cc1cc(C)c(NC(=O)CSc2nc(O)cc(=O)[nH]2)c(C)c1	2.5	-5.3	nt	nt
C[C@H]1CN([C@@H](C)CO)C(=O)Cc2cc(NC(=O)Cc3ccccc3)ccc2O[C@H]1CN(C)CC1CC1	1.1	-19.0	-0.125	nt
C[C@@H]1CN([C@@H](C)CO)C(=O)c2cccc(NS(=O)(=O)c3cn(C)cn3)c2O[C@@H]1CN(C)Cc1ccc(C(=O)O)cc1	0.0	0.9	0.319	-11.0
O=C(COc1ccc(I)cc1)Nc1cccnc1	-0.4	0.4	nt	nt
C[C@H](CO)N1C[C@H](C)[C@H](CN(C)C)Oc2ccc(NC(=O)CCC(F)(F)F)cc2CC1=O	1.4	-6.1	0.367	8.3
Cc1cc(C)nc(SCc2csc(N)n2)n1	2.4	-58.6	nt	nt
CCn1c(SCC(=O)Nc2ccc(Cl)cc2Cl)nnc1-c1cccc(C)c1	0.4	-9.5	nt	nt
Cc1ccc(N2C(=O)/C(=C/C=C/c3ccccc3)SC2=S)cc1	-2.1	-14.8	-0.285	24.3
Cc1ccc(S(=O)(=O)N(C)C[C@H]2Oc3ccc(NC(=O)Cc4ccccc4)cc3CC(=O)N([C@H](C)CO)C[C@H]2C)cc1	-1.1	23.6	0.111	-21.2
CC12C=CC(=O)C=C1CCC1C2=CCC2(C)C1CC[C@@H]2C(=O)CN1CCN(c2cc(N3CCCC3)nc(N3CCCC3)n2)CC1 (some centres undefined)	nt	0.9	-0.238	?
C[C@H](CO)N1C[C@H](C)[C@@H](CN(C)S(=O)(=O)c2ccccc2)Oc2ccc(NC(=O)Nc3ccccc3)cc2C1=O	1.4	-32.3	0.332	-15.6
COC(=O)c1cc(NC(=O)CSc2nnc(C)s2)ccc1Cl	0.5	-1.3	nt	nt
C[C@H]1CN([C@@H](C)CO)C(=O)Cc2cc(NC(=O)CCC(F)(F)F)ccc2O[C@H]1CN(C)Cc1ccncc1	0.4	-7.8	-0.000471	3.1
C[C@@H]1CN([C@H](C)CO)C(=O)c2cc(NS(=O)(=O)c3cccs3)ccc2O[C@H]1CN(C)C(=O)Nc1ccc(F)cc1	-0.5	1.3	0.333	nt
COc1ccc(NC(=O)N(C)C[C@@H]2Oc3ccc(NC(=O)CCCN(C)C)cc3C(=O)N([C@@H](C)CO)C[C@@H]2C)cc1	2.8	-6.5	-0.026	4.2
Cc1sc2c(c1C)c(=O)nc1scc(CC(=O)NCCO)n12	0.4	-21.5	nt	nt
C[C@@H]1CN([C@H](C)CO)C(=O)Cc2cc(NC(=O)C3CCCCC3)ccc2O[C@@H]1CN(C)Cc1ccc(Cl)c(Cl)c1	-5.8	25.6	-0.208	33.4
C[C@@H]1CN([C@@H](C)CO)C(=O)c2cccc(NS(=O)(=O)c3ccc(Cl)cc3)c2O[C@@H]1CN(C)C(=O)Nc1ccc(F)cc1	nt	27.5	0.0522	32.0

Source: PubChem
